Screens: PubChem, several laboratories
RanGTP-Impb inh – disruptors of Ran-importin-beta complex formation – biochemical, FRET, CFP-Ran, YFP-importin-beta, homogeneous, primary screen | cell-free CFP-Ran/YFP-importin-beta FRET ratio | inhibition, % (concentration not given with the values) | 300,000 tested, 1.1% active | AID 2216;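 active = most replicates above 15%; inconclusive = exactly half above 15%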;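 also: 0% = DMSO wells and 100% = Ran loaded with GDP instead of GTP; wells of about 40 µL received 100 nL stock; the first replicate is given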
AF4-AF9 inh – blocks AF4 peptide binding to human AF9; P42568; AlphaScreen, biotin-AF4 peptide binding to FLAG-AF9; AID 651704; 350,000 tested, 0.47% active; inhibition, % at 10 µM;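 active = every replicate reaching a set inhibition limit, whatever the replicate mean, cut at about 25% in these data; inconclusive = mean inhibition reaches that limit but some replicates miss it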;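 also: 0% = plate neutral control median and 100% = total signal loss; the record names both 10 and 1 µM as test concentration; the first replicate is given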
Target sequence (P42568 whole entry, looked up): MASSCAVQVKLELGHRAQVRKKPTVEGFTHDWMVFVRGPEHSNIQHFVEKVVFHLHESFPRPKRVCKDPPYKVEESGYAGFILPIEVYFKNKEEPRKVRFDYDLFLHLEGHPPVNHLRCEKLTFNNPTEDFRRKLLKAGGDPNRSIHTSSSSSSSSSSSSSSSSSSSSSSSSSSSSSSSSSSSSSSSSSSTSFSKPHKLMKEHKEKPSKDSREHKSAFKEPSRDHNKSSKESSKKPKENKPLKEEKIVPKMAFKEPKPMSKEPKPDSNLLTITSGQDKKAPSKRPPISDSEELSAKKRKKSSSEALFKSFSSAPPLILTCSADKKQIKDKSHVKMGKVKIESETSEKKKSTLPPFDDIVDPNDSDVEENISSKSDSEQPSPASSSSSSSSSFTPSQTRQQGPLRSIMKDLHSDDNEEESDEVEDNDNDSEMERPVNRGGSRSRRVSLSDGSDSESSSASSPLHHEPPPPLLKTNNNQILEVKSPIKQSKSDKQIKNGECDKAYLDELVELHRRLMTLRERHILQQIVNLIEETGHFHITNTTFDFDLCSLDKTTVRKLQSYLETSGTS
T cruzi inh – blocks replication of Trypanosoma cruzi; 300,000 tested, 1.4% active; inhibition, % (no concentration beside the values); T. cruzi beta-gal in NIH3T3, luminescence, 90 h;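 active = mean inhibition across valid replicates above about 55%, limit read from the data; inconclusive = mean below that limit but half or more replicates reach it; inactive = mean below it, under half of replicates reach it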;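 also: signal also drops with host cell toxicity which is not excluded here; 0% = plate median of DMSO wells and 100% = zero luminescence signal; higher percent means less beta-gal luminescence so fewer parasites; stock transfer was 50 nL into about 50 µL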
Vif A3G – HIV-1 Vif–A3G interaction blockers – biochemical, TR-FRET, GST-Vif 1-94, biotin-A3G peptide, dose response retest, primary screen (AID 1117319); one-dose inhibition, %; IC50 in µM for titrated hits; 260,000 tested, 0.57% active; TR-FRET GST-Vif / biotin-A3G peptide binding; higher % means a stronger effect; test concentration not given here; strong numbers were not always called active;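 active = above the screen mean plus three standard deviations and confirmed in dose response; inconclusive = results disagree or hit not tested in dose response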;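 also: Vif residues 1-94 fused to GST binding biotinylated APOBEC3G peptide 110-148; 0% = full assay without inhibitor and 100% = GST in place of GST-Vif; retest series ran down from 100 µM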
Beta cell apopt – beta cell apoptosis inhibition; INS-1E cytokine-induced death, ATP luminescence, 48 h; percent of positive-control rescue, neutral wells zero; protection from apoptosis, % (test concentration not listed); 300,000 tested, 0.8% active; AID 435005;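 active = all replicates at 75% or more, or half of them and the mean; inconclusive = half reach 75% but not the mean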;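 also: 0% = cytokine-treated negative control wells and 100% = positive control rescue; higher means more ATP so stronger rescue from cytokine killing; wells of about 40 µL received 100 nL stock; the first replicate is given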
rRNA inh HTS – selective bacterial rRNA inhibition in E. coli | E. coli WT GFP vs humanized-ribosome RFP mutants, fluorescence, 24 h; active compounds read low; DMSO median 0, no signal -100 | GFP signal change (wild-type ribosome), % (test concentration not listed) | 350,000 tested, 1.6% active;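 active = significant combined selectivity score with lowered wild-type GFP, culture density cut under 30%, mutant RFP and density less affected; inactive = any of these conditions unmet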; also: one replicate is shown; some compounds called inactive have numbers as strong as hits
Calb FLC – affects C. albicans growth with fluconazole; C. albicans CaCi-2 (fluconazole-resistant clinical isolate) + fluconazole, Alamar Blue growth, 48 h; growth inhibition, % (test concentration not listed); 300,000 tested, 0.57% active; AID 1979;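 active = most replicates above 75%; inconclusive = exactly half above 75%; inactive = most below 75%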;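 also: all wells also contain fluconazole at 8 µg/ml as a sub-toxic cotreatment; 0% = median of DMSO wells and 100% = median of geldanamycin control wells; wells of about 8 µL received 7.5 nL stock; the first replicate is given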
Bfl-1 A1 inh – inhibitors of the anti-apoptotic protein A1, read as caspase activation; MEF A1-2A-BIM cells, Caspase-Glo 3/7 luminescence, 3 h; percent of clofoctol response, vehicle zero; caspase activation, % (no concentration beside the values); 330,000 tested, 0.066% active; AID 2462;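 active = over half of replicate activation scores above 10%, or exactly half above 10 with the replicate mean above 10; inconclusive = replicate mean below 10 yet half the replicates above 10; inactive = over half of replicates below 10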;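 also: wells of about 30 µL received 50 nL stock; many hits fall short of the cut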
rRNA inh HTS OD600 – further read-out of rRNA inh HTS, marked with its call; OD600 change, %; measured here: OD600 growth;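 optical density of the mix in the first replicate; 0 = DMSO median and -100 = no signal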
rRNA inh HTS RFP – further read-out of rRNA inh HTS, marked with its call; RFP signal change, %; measured here: RFP humanized mutant strains;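 first replicate; 0 = DMSO median and -100 = no signal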
The depositor's hits bear a star; ? = inconclusive; . = not tested or not shown; & = joins results of further samples. Not all compounds are listed; count on the stated rates, not on these rows.

SMILES	RanGTP-Impb inh	AF4-AF9 inh	T cruzi inh	Vif A3G	Beta cell apopt	rRNA inh HTS	rRNA inh HTS OD600	rRNA inh HTS RFP	Calb FLC	Bfl-1 A1 inh
O=C(NNC(=O)c1cccs1)c1ccc([N+](=O)[O-])cc1	1.9	-16	5	.	-2	11	9	-1.6	-10	-0.3
Cc1ccc(Nc2cc(-n3nc(C)cc3C)ncn2)cc1	-2.4	.	3	8%	1	.	.	.	-5	1.2
Cc1ccc(-c2[nH]c(-c3ccccc3)nc2SCC(=O)NCC2CCCO2)cc1 (stereo not given)	0.4	17	8	7%	-4	7	-19	-5.1	-1	0.8
O=C(/C=C/c1cccc(Cl)c1)NCc1cccs1	1.6	.	-12	0%	-3	.	.	.	-3	0.4
CCOc1ccccc1NC(=O)c1cnc2n(c1=O)CCS2	3.3	.	-7	18%	-3	.	.	.	5	-1.2
O=C1c2cccc3cccc(c23)C(=O)N1CCN1CCN(CC(O)COCc2ccc(Cl)cc2)CC1 (stereo not given)	1.2	.	12	?	-1	.	.	.	-26	-0.1
CN(CCCC1CCCC1)C(=O)c1cc(COc2ccc(F)cc2F)on1	-7.8	-1.0	30	.	-3	-9	-19	-4.2	-13	-0.4
CCn1cc(C(=O)NCCCN2CCC(C)CC2)c2cc(OC)c(OC)cc2c1=O	-1.2	-1.7	-13	-6%	-3	9	8	-1.6	-2	-0.4
CCOC(=O)CSc1nnc2cc(C)c3ccccc3n12	5.0	.	-12	-5%	-1	.	.	.	10	0.6
N/C(=N\OC(=O)COc1ccccc1)c1ccc(Cl)cc1	2.2	4.4	-5	.	-7	9	10	-1.4	-14	-0.8
CS(=O)(=O)N(CC(=O)N/N=C/c1cccc2c1OCCO2)c1ccccc1Br	-3.5	.	-6	0%	-4	.	.	.	-1	0.4
CCOc1ccc(N2CC(C(=O)N/N=C/c3sccc3C)CC2=O)cc1 (stereo not given)	1.0	1.5	10	-4%	-2	12	10	-0.2	-25	-1.0
O=C(CN(CC1CCCO1)C(=O)Cn1nnc(-c2ccc(F)cc2)n1)NC1CCCCC1 (stereo not given)	1.7	-12	.	4%	3	14	11	-3.5	-6	0.9
Cc1ccc(C(=O)N(CC(=O)Nc2ccc(Cl)c(Cl)c2)Cc2ccco2)cc1	1.3	.	-16	29%	.	.	.	.	-10	0.0
O=C(Cn1cc2c(n1)CCCC2)NC1CCN(Cc2ccccc2)CC1	0.0	-1.8	24	-2%	-3	3	2	-2.0	-4	-0.9
COc1ccc(Br)cc1S(=O)(=O)N1CCN=C1C	-1.1	.	-10	13%	-23	.	.	.	-1	0.2
CCCS(=O)(=O)N1CCC(C(=O)NCCc2ccc(C)cc2)CC1	?	.	5	1%	0	.	.	.	-10	-0.3
O=S(=O)(c1ccc(NC(=S)NCCc2ccccc2)cc1)N1CCOCC1	-1.6	.	-18	1%	-6	.	.	.	1	1.1
COc1ccc(CNC(=O)[C@H](C)NC(=O)C2CCN(C(=O)[C@H](CCSC)NC(=O)OC(C)(C)C)CC2)cc1	-2.9	-3.1	27	.	-3	.	.	.	2	0.6
CCCNC(=O)c1ccc(S(N)(=O)=O)cc1	-0.4	-0.2	7	.	0	6	4	-0.2	-2	1.5
Cc1nnc(SCC(=O)NNC(=O)c2ccc(F)cc2)n1Cc1ccccc1	.	5.0	.	-5%	-1	11	7	1.7	.	-0.1
CC(C)(C)Nc1nc(-c2ccc3c(c2)CCN3C(=O)C2CC2)cs1	0.2	5.9	20	.	0	3	6	2.4	-5	0.5
CCN(CC)C(=O)C1CCCN(c2ccccc2[N+](=O)[O-])C1 (stereo not given)	-2.2	-1.4	-3	-18%	-1	30	23	5.1	-4	3.4
O=C(Cc1ccc2c(c1)OCO2)NN=Cc1ccc([N+](=O)[O-])o1	.	-4.7	.	-2%	41	-59	-66	-19	.	1.4
COc1ccc(-c2c(C)c3cc(O)ccc3oc2=O)cc1	3.8	-0.7	8	4%	-1	-9	-10	-3.4	-7	-0.3
Nc1nc(-c2cccnc2)nc(N2CCCCC2)n1	3.0	.	-5	-2%	.	.	.	.	11	0.4
CSCCC(NC(=O)c1ccco1)C(=O)NNC(=O)c1n[nH]c(=O)c2ccccc12 (stereo not given)	.	0.9	.	.	-1	3	-5	-0.7	.	0.0
Cc1cc(C(=O)N/N=C/c2ccc(-c3ccc(C)c(Cl)c3)o2)n[nH]1	-0.3	-1.2	-4	-13%	.	-12	-15	-0.5	4	2.2
O=C(CNc1cccc(Cl)c1)c1ccc(Cl)cc1	1.3	.	6	-2%	-7	.	.	.	1	-0.2
COc1cc2c(cc1OC)CN(C(=O)CCCOc1ccc(Cl)cc1Cl)CC2	2.3	.	28	6%	-9	.	.	.	9	-0.6
C#CCOc1ccc2c(C)cc(=O)oc2c1	6.1	-15	12	-5%	-3	.	.	.	1	0.2
N#C/C(=C\c1ccc(N2CCOCC2)o1)C(=O)NCCc1ccccc1	53*	11	16	20%	11	-9	-16	18	42	-0.9
O=C(NCc1ccco1)C1(S(=O)(=O)c2ccc(Cl)cc2)CC1	?	.	-2	5%	0	.	.	.	1	2.0
Cc1cccc(CSc2nnnn2-c2ccccc2)c1	3.8	.	12	-2%	-9	.	.	.	6	0.1
COc1ccccc1-n1cnnc1SCC(=O)c1c[nH]c2ccccc12	3.7	-4.1	8	-24%	-5	3	-2	-1.2	-2	0.6
Cc1ccc(S(=O)(=O)n2nc(OC(=O)C(C)(C)C)cc2N)cc1	-3.1	.	-12	-1%	2	.	.	.	-7	1.7
COc1cc(C(=O)Nc2oc(-c3ccccc3)c(-c3ccccc3)c2C#N)cc(OC)c1OC	-2.5	.	13	19%	29	.	.	.	22	-1.0
COc1cc(OC)cc(C(=O)NCC2CCCN(Cc3ccc(SC)cc3)C2)c1 (stereo not given)	4.5	-7.4	37	.	.	2	1	5.6	-5	-0.1
CCOC(=O)CCSc1nc(C)c2ccccc2n1	4.9	.	2	-5%	-5	.	.	.	-2	0.1
Cc1c[nH]c2cccc(OCC(O)CNC(C)(C)C)c12 (stereo not given)	1.2	.	-20	?	-4	.	.	.	-7	0.4
CCC(C)(C)n1nnnc1C(c1cc2ccc(OC)cc2[nH]c1=O)N1CCc2ccccc2C1 (stereo not given)	16*	.	55*	10%&6%	8	.	.	.	0	0.5
CCOCCCNC(=O)C(NC(=O)c1ccc(NC(C)=O)cc1)c1ccc(OC)cc1 (stereo not given)	-2.9	.	-2	.	-4	.	.	.	-9	0.9
NS(=O)(=O)c1ccc(NC(=O)COC(=O)CCc2ccccc2)cc1	8.3	-18	-2	0%	0	6	2	9.0	1	0.3
Cc1cc(-c2nnc(CCC(=O)N(CC3CCC3)CC3CCCO3)o2)no1 (stereo not given)	4.7	0.4	19	.	-2	17	11	3.2	-5	0.0
CCn1c(=O)c2cc(S(=O)(=O)NC3CCCCC3)ccc2n(CC)c1=O	4.8	.	-15	7%	-1	.	.	.	15	-0.1
COc1cc(C(=O)N/C(=C\c2cn(S(=O)(=O)N(C)C)c3ccccc23)C(=O)NCCCO)cc(OC)c1OC	-0.2	-3.8	2	26%	-3	7	-2	-1.4	4	-0.1
N#Cc1ccccc1OCC(=O)N1N=C(c2cccs2)CC1c1ccco1 (stereo not given)	.	10.0	.	-8%	0	-15	-15	0.3	.	0.1
c1ccc(CNc2nc(NCc3ccccc3)c3ccccc3n2)cc1	0.1	.	38	.	114*	.	.	.	80*	-0.2
Cn1c(CC(=O)Nc2ccccc2C(F)(F)F)c(Sc2ccccc2)c2ccccc21	2.3	.	27	3%	5	.	.	.	-2	0.1
O=C(CSc1nnnn1-c1ccc(Cl)cc1)N1CCNC1=O	.	-6.4	.	-2%	-1	1	-19	-1.6	.	0.5
C=CCN(CC=C)C(=S)Nc1cc(Cl)ccc1OC	-2.3	-1.8	-8	-10%	-4	-18	-12	-1.3	4	0.2
COc1ccc(C(=O)N/C(=C\c2cn(S(=O)(=O)N(C)C)c3ccccc23)C(=O)N2CCOCC2)cc1	-0.7	5.4	10	-9%	7	-14	-16	-0.9	35	0.7
CCOCCCNC(=S)NCCCNc1nc2ccc(C)cc2cc1C#N	.	-11	13	17%	-6	20	14	0.7	9	0.7
CN(C)CCn1c(NC(=O)c2ccc(Cl)cc2)nc2ccccc21	-1.7	.	35	7%	14	.	.	.	-4	-0.1
Cc1ccccc1NC(=O)Cc1nc(COC(=O)c2cc([N+](=O)[O-])ccc2NCCO)cs1	.	-0.8	12	-3%	4	-4	10	4.6	-2	0.1
OC[C@H]1OC(O)[C@H](O)[C@@H]1O (stereo not given in full)	.	-1.5	.	.	1	1	8	3.6	.	0.3
c1ccc(OCCCc2nc(-c3cccnc3)no2)cc1	-2.9	.	5	28%	-8	.	.	.	-4	0.3
COc1ccc(-n2c(SCC(=O)N/N=C(\C)c3cccnc3)nc3ccccc3c2=O)cc1	1.8	-4.1	22	-11%	3	-7	-1	-2.4	-10	0.2
CCC(C)c1ccc(NC(=O)C2CCCN(c3ncccn3)C2)cc1 (stereo not given)	?	.	11	?	9	.	.	.	1	0.0
Cc1ccccc1Nc1nc(-c2sc(NC(=O)c3cccc(Cl)c3)nc2C)cs1	-2.6	.	-10	15%	8	.	.	.	4	3.4
The listing continues:
SMILES	RanGTP-Impb inh	AF4-AF9 inh	T cruzi inh	Vif A3G	Beta cell apopt	rRNA inh HTS	rRNA inh HTS OD600	rRNA inh HTS RFP	Calb FLC	Bfl-1 A1 inh
O=c1[nH]c(N2CCCCC2)nc2ncn(Cc3ccccc3)c12	-0.6	0.6	8	6%	0	3	25	1.4	18	0.2
COc1ccc(CCNC(=O)[C@H](CCSC)NC(=O)N2CCn3c2nc2ccccc23)cc1OC	-1.0	0.5	-1	.	-2	22	16	2.6	-3	0.4
CCn1c2ccccc2c2cc(NC(=O)CSc3nnc(-c4cccc(Cl)c4)o3)ccc21	-1.5	.	6	?	3	.	.	.	-6	0.4
CCOC(=O)N1CCC(NC(=O)C2CCN(C(=O)c3cc4sccc4n3CC)CC2)CC1	-4.3	-1.0	0	9%	-1	10	-1	-2.7	0	0.4
CCOP(=O)(OCC)c1ccc2ccc3ccccc3c(=O)c2c1	.	7.3	.	.	-3	-20	-14	-4.6	.	-0.2
CCc1ccccc1N(CC(=O)NCCc1ccccc1)C(=O)CCC(=O)Nc1ccccn1	-0.3	-1.1	4	.	-2	3	-21	7.4	10	-0.7
COc1ccc(CSc2n[nH]c(C)n2)cc1[N+](=O)[O-]	8.8	.	-6	.	-5	.	.	.	-8	0.2
O=C(NCCN1CCCC1)c1ccc(Cl)cc1Cl	0.9	2.9	-12	.	.	17	10	3.8	-10	1.3
